Vif TR-FRET – inhibitors of Vif binding to APOBEC3G peptide, primary screen, biochemical, TR-FRET, GST-Vif 1-94, biotin-A3G peptide, dose response retest (AID 1117319). TR-FRET GST-Vif / biotin-A3G peptide binding; higher % means a stronger effect; test concentration not given here; strong numbers were not always called active. inhibition, %, or IC50 in µM where a hit was titrated. 260,000 compounds, 0.57% hits;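 active = above the screen mean plus three standard deviations and confirmed in dose response; inconclusive = results disagree or hit not tested in dose response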;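 also: Vif residues 1-94 fused to GST binding biotinylated APOBEC3G peptide 110-148; 0% = full assay without inhibitor and 100% = GST in place of GST-Vif; retest series ran down from 100 µM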
Calb FLC – affects C. albicans growth with fluconazole; 300,000 compounds, 0.57% hits; growth inhibition, % (no concentration beside the values); C. albicans CaCi-2 (fluconazole-resistant clinical isolate) + fluconazole, Alamar Blue growth, 48 h; AID 1979;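 active = most replicates above 75%; inconclusive = exactly half above 75%; inactive = most below 75%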;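 also: all wells also contain fluconazole at 8 µg/ml as a sub-toxic cotreatment; 0% = median of DMSO wells and 100% = median of geldanamycin control wells; wells of about 8 µL received 7.5 nL stock; the first replicate is given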
Beta apoptosis – blocks beta cell apoptosis; INS-1E cytokine-induced death, ATP luminescence, 48 h; percent of positive-control rescue, neutral wells zero; protection from apoptosis, % (test concentration not listed); 300,000 compounds, 0.8% hits; AID 435005;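 active = all replicates at 75% or more, or half of them and the mean; inconclusive = half reach 75% but not the mean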;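 also: 0% = cytokine-treated negative control wells and 100% = positive control rescue; higher means more ATP so stronger rescue from cytokine killing; wells of about 40 µL received 100 nL stock; the first replicate is given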
T cruzi repl – blocks replication of Trypanosoma cruzi. T. cruzi beta-gal in NIH3T3, luminescence, 90 h. inhibition, % (concentration not given with the values). 300,000 compounds, 1.4% hits. AID 1885;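 active = mean inhibition across valid replicates above about 55%, limit read from the data; inconclusive = mean below that limit but half or more replicates reach it; inactive = mean below it, under half of replicates reach it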;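 also: signal also drops with host cell toxicity which is not excluded here; 0% = plate median of DMSO wells and 100% = zero luminescence signal; higher percent means less beta-gal luminescence so fewer parasites; stock transfer was 50 nL into about 50 µL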
RanGTP-Impb inh – inhibitors of RanGTP-importin-beta interaction, primary screen, biochemical, FRET, CFP-Ran, YFP-importin-beta, homogeneous | cell-free CFP-Ran/YFP-importin-beta FRET ratio | inhibition, % (concentration not given with the values) | 300,000 compounds, 1.1% hits | AID 2216;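 active = most replicates above 15%; inconclusive = exactly half above 15%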;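 also: 0% = DMSO wells and 100% = Ran loaded with GDP instead of GTP; wells of about 40 µL received 100 nL stock; the first replicate is given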
A1 inh – inhibitors of the anti-apoptotic protein A1, read as caspase activation. MEF A1-2A-BIM cells, Caspase-Glo 3/7 luminescence, 3 h; percent of clofoctol response, vehicle zero. 330,000 compounds, 0.066% hits. caspase activation, % (test concentration not listed);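 active = over half of replicate activation scores above 10%, or exactly half above 10 with the replicate mean above 10; inconclusive = replicate mean below 10 yet half the replicates above 10; inactive = over half of replicates below 10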;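 also: wells of about 30 µL received 50 nL stock; many hits fall short of the cut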
AF4-AF9 inh – MLL-AF4/AF9 protein interaction inhibition | P42568 | AlphaScreen, biotin-AF4 peptide binding to FLAG-AF9 | inhibition, % at 10 µM | 350,000 compounds, 0.47% hits;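 active = every replicate reaching a set inhibition limit, whatever the replicate mean, cut at about 25% in these data; inconclusive = mean inhibition reaches that limit but some replicates miss it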;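 also: 0% = plate neutral control median and 100% = total signal loss; the record names both 10 and 1 µM as test concentration; the first replicate is given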
Target sequence (P42568 whole entry, looked up): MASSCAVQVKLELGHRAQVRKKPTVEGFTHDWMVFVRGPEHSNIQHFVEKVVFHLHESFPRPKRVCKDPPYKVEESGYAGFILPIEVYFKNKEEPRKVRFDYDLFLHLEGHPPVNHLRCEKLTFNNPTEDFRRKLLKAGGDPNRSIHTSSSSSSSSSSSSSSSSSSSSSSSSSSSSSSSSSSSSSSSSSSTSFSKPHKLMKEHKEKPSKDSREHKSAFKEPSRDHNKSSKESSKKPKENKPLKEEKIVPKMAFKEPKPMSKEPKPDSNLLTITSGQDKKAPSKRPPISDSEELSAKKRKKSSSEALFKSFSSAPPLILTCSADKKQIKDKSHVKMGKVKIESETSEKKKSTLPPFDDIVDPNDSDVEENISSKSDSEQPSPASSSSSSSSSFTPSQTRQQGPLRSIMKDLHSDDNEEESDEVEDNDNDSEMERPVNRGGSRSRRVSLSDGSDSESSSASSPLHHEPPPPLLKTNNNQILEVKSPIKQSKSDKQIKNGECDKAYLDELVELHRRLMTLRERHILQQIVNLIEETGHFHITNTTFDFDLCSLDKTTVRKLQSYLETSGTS
LANA-H2A inh – blocks KSHV LANA binding to histone H2A/H2B; Q9QR71; cell-free LANA-H2A/H2B peptide, fluorescence polarization; inhibition, % (concentration not given with the values); 320,000 compounds, 0.6% hits; in the data active = inhibition mostly above about 10%, no sharp cut-off; inactive = mostly below about 6.7%;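 also: stock transfer was 7.5 nL into about 10 µL; 0% = median of vehicle wells and 100% = median of positive control wells; one replicate is shown; the record names a cut of 25% in any replicate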
* hit, by the source's call; ? = inconclusive; nt = not tested or not shown. Rows were taken by chance, and some 4.3% of all compounds hit somewhere here.

SMILES	Vif TR-FRET	Calb FLC	Beta apoptosis	T cruzi repl	RanGTP-Impb inh	A1 inh	AF4-AF9 inh	LANA-H2A inh
CC1(C)CC(O)C(C(O)c2cccc([N+](=O)[O-])c2)C(C)(C)N1 (stereo not given)	?	5	-11	-6	-0.8	-0.7	0.7	-0.1
Cc1ccc2c(-c3csc(N)n3)c[nH]c2c1	nt	0	-3	-8	?	0.0	nt	8.1
COc1cc2c(C#N)c(N3CCN(C)CC3)nc(N)c2c(N)n1	21%	0	0	4	-15	0.2	nt	-2.9
N#CCCN(C(=O)CO/N=C/c1cccc([N+](=O)[O-])c1)c1ccccc1	3%	-7	5	-5	nt	2.4	1.6	4.2
CSc1nnc(CNC(=O)C23CC4CC(CC(C4)C2)C3)n1Cc1ccccc1	nt	-3	-11	9	-1.0	0.5	0.9	0.1
CCCCOc1ccc(C(NC(=O)OCC)NC(=O)OCC)cc1	nt	17	nt	-7	1.4	0.3	nt	0.0
COc1cc2nc(CN3CCC(Cc4ccccc4)CC3)[nH]c(=O)c2cc1OC	-4%	36	1	1	-0.7	2.0	-14	-3.3
C/C=C\C=C/C(=O)Nc1cccc(C2=NOC3(C2)C[C@@H](C(N)=O)N(C(=O)COc2ccc(Cl)cc2)C3)c1 (stereo not given in full)	4%	-2	0	0	-2.6	-0.1	0.8	0.8
CC1CCN(c2ccc(NC(=O)C3CCCN3S(=O)(=O)c3ccc(F)cc3)cc2)CC1 (stereo not given)	nt	nt	34	nt	nt	-0.8	18	6.6
COc1cc(C(=O)OCC(=O)NCc2ccc(F)cc2)ccc1OCC(C)C	nt	0	-2	-14	-4.3	-0.6	-0.5	5.0
CC(C)CN(C(=O)COC(=O)c1nc(Cl)ccc1Cl)c1c(N)n(Cc2ccccc2)c(=O)[nH]c1=O	nt	-10	-2	-11	-1.7	0.0	-0.2	2.2
COc1cnn(-c2ccc(C)cc2)c(=O)c1Br	-4%	-1	0	-17	-2.8	-1.4	-1.3	1.6
CCOc1cccc(CN2CCCC(N3CCN(c4cccc(Cl)c4)CC3)C2)c1O (stereo not given)	nt	0	2	45	0.1	-0.3	17	-1.9
CCOC(=O)C1=C(N)n2c(s/c(=C\c3ccco3)c2=O)=C(C(=O)OCC)C1c1ccco1 (stereo not given)	1.4µM*	17	12	10	-1.9	-0.4	14	2.2
CN(C)C(=O)c1c(C(F)(F)F)nn(C)c1Cl	6%	-2	4	-19	-0.5	0.2	-6.3	-1.3
CCN(CC)CCNC(=O)c1ccc(Cl)c(S(=O)(=O)N2CCCCCC2)c1	4%	0	4	38	-0.9	0.6	nt	-0.4
COc1ccc(-c2c[n+]3c4n2CCCCC4=C(c2ccc(Br)cc2)C3)cc1	9%	-15	104*	53	-11	2.2	nt	4.7
Cc1nn(CC(=O)NCCCN2CCOCC2)c(C)c1[N+](=O)[O-]	-2%	-9	-4	-3	-3.3	-0.1	-54	-8.9
COc1ccccc1CCNC(=O)C1CCC(=O)N(C2CCCCCC2)C1 (stereo not given)	nt	-23	2	7	-2.5	-0.3	-1.2	2.1
CC(C)[C@H](NC(N)=O)C(=O)Nc1cccc([N+](=O)[O-])c1	-8%	-6	nt	-10	-1.0	-0.5	-2.4	3.8
Cn1c(SCc2nc3ccccc3c(=O)[nH]2)nc2ccccc21	-5%	6	1	8	?	-1.2	0.1	0.1
CN(C)S(=O)(=O)CC12CCC(CC1=O)C2(C)C (stereo not given)	-8%	-8	nt	1	-0.2	-0.1	nt	-2.3
COC(=O)c1ccc(NC(=O)CSc2nnc(C)n2CC2CCCO2)cc1 (stereo not given)	3%	14	3	7	-2.6	0.4	-1.2	-0.8
Cc1cc(C(=O)Nc2cccnc2Cl)on1	0%	1	-4	-9	5.0	0.3	nt	1.0
CCOc1ccc(S(=O)(=O)/N=C(/Nc2ccc(S(N)(=O)=O)cc2)c2ccccc2)cc1	nt	nt	-3	nt	nt	0.6	0.0	4.3

More entries:
SMILES	Vif TR-FRET	Calb FLC	Beta apoptosis	T cruzi repl	RanGTP-Impb inh	A1 inh	AF4-AF9 inh	LANA-H2A inh
CCOc1ccc(C(=O)OC2CCCN(C)C2)cc1 (stereo not given)	-2%	-15	-3	-2	-0.3	0.1	-0.1	-0.1
C/C(=N/O)c1cc(C(C)(C)C)c(O)c(C(C)(C)C)c1	-1%	19	-3	-3	-3.4	0.6	nt	-1.9
CCC1CCc2c(sc3ncnc(N4CCOCC4)c23)C1 (stereo not given)	-6%	-4	2	17	0.7	-0.6	nt	-6.2
Cc1csc(NC(=O)c2ccc(Cl)cc2[N+](=O)[O-])n1	33%	4	-2	47	?	-5.3	0.1	2.6
Cc1onc(-c2ccccc2Cl)c1C(=O)Nc1cccc(S(=O)(=O)N2CCOCC2)c1	nt	nt	-5	nt	nt	-0.3	-3.3	-2.5
CCN1CCN(c2ccc(S(=O)(=O)N3CCCCC3)cc2NC(=O)c2ccc(OC(F)F)cc2)CC1	3%	-9	11	39	1.0	1.6	-2.6	2.3
O=C1CCC/C(=N/NC(=O)c2sc3ccccc3c2Cl)C1	28%	4	2	-8	-29	-1.2	nt	-4.0
O=C(NN1C(=O)C2C3C=CC(C3)C2C1=O)c1cccc(Cl)c1 (stereo not given)	-7%	26	nt	-5	-5.6	0.0	nt	4.9
Cc1ccc(S(=O)(=O)NCCC2=CCCCC2)cc1C(N)=O	5%	14	34	-3	-4.4	-1.6	-0.3	-3.8
COc1ccc(CCC(=O)N2CCN(C(=O)c3ccccc3)CC2)cc1	4%	13	nt	3	-1.2	0.2	0.0	1.0
Cc1cc(=O)n(CC(C)C)c(O)c1C#N	17%	nt	-4	nt	nt	0.6	nt	-3.5
O=C(Cn1cc2c(n1)CCCC2)Nc1cc(-c2cccc(Cl)c2)no1	6%	7	-4	0	-3.5	-0.9	-1.4	-1.7
O=C(CSc1ccccc1)NCCc1ccc(F)cc1	nt	7	0	7	?	2.8	-2.3	6.0
COc1ccccc1CN1CCNC(=O)C1CC(=O)NCCCN1CCCC1=O (stereo not given)	nt	16	3	-17	3.1	0.1	-3.7	3.8
COCCCNC(=O)c1c(N)n(-c2cccc(S(N)(=O)=O)c2)c2nc3ccccc3nc12	10%	1	-5	3	104*	-0.1	nt	-0.7
CCc1nn(C(CC)C(=O)NCc2cccc(OC)c2)c(=O)c2cc3occc3n12 (stereo not given)	-2%	9	-2	-5	1.3	0.8	-2.4	6.8
CCOc1ccc(OCC)c(NC(=O)c2[nH]c(C)c(C(C)=O)c2C)c1	4%	7	-5	-11	7.5	1.0	nt	-3.7
C=C(C)C1CC=C(C)/C(=N\NC(=S)Nc2ccc(C)cc2)C1 (stereo not given)	-4%	17	5	43	0.3	0.3	nt	5.1
Cn1c(=O)c2c(n3cnnc13)-c1ccccc1CC21CCCC1	nt	0	nt	0	-0.4	-0.9	nt	1.0
C[C@@H]1C[C@H](O)c2cc(Cl)ccc2N1	2%	nt	2	-11	1.1	-0.4	nt	2.9
CC(C)C(NC(=O)C1CCC(C(C)(C)C)CC1)C(=O)NCCCN1CCCCC1 (stereo not given)	-2%	1	-6	13	7.4	-0.5	6.3	-3.0
COC(=O)c1ccccc1NC(=O)CN1CCC(C)CC1	27%	3	-9	-6	0.1	0.2	-2.1	13
NNC(=O)c1cccn(Cc2cccc(C(F)(F)F)c2)c1=O	0%	-2	2	-11	-3.4	2.9	0.6	8.7
COc1ccccc1N(CC(=O)Nc1cccnc1)S(C)(=O)=O	27%	?	-9	-14	1.1	0.1	nt	1.7
CCOC(=O)/C(C(C)=O)=C1\OC(=O)c2ccccc21	1%	13	-6	-22	1.5	1.0	nt	-2.1

Continued:
SMILES	Vif TR-FRET	Calb FLC	Beta apoptosis	T cruzi repl	RanGTP-Impb inh	A1 inh	AF4-AF9 inh	LANA-H2A inh
C[C@@H]1CN([C@@H](C)CO)C(=O)Cc2cc(NS(=O)(=O)c3ccccc3)ccc2O[C@H]1CN(C)S(C)(=O)=O	nt	nt	-2	nt	nt	-0.3	0.6	4.0
N#CC1=C(N)OC2=C(C(=O)CCC2)C1c1ccncc1 (stereo not given)	7%	9	nt	nt	nt	0.7	nt	2.9
CCCn1c(SCC(=O)Nc2cccc(NC(C)=O)c2)nnc1C(C)C	6%	3	1	-22	-3.4	-0.6	nt	3.0
CCc1nnc(NC(=O)C2Cc3ccccc3C(=O)O2)s1 (stereo not given)	-1%	-4	-3	-24	0.2	-0.7	-1.0	0.5
CC1=NN(C(=O)c2cc(C)nn2C)C(O)(C(F)(F)F)C1 (stereo not given)	-1%	-12	4	-1	4.8	-0.5	5.4	-4.1
Cc1cc(C)cc(NCc2cc(=O)oc3cc(C)c(O)cc23)c1	1%	32	9	42	2.4	-0.6	-4.2	-0.6
Cc1nnc(-c2cnn(C)c2N)n1Cc1ccccc1	-3%	-2	-7	5	-3.2	1.4	nt	1.5
COc1ccc(Br)cc1C1N2CC3(C)CN1CC(C)(C2)C3=O (stereo not given)	-4%	-8	-2	1	-3.4	0.8	nt	2.6
Cn1c2ccccc2c2cnn(CC(=O)Nc3ccccc3Br)c(=O)c21	3%	-6	3	15	-1.8	0.6	2.9	3.4
COCCCNC(=S)N1CCCN(c2nc3cc(C)c(C)cc3cc2C#N)CC1	3%	-14	6	21	57*	1.4	-5.0	0.4
O=[N+]([O-])c1ccc(N/N=C/c2ccccc2O)cc1	nt	-28	16	-3	2.3	-1.0	2.4	-4.5
O=[N+]([O-])c1ccc(Nc2nc(N/N=C/c3cccc(F)c3)nc(N3CCCC3)n2)cc1	nt	-3	24	33	-2.5	0.7	8.2	-6.3
CCSc1nc2c(c(=O)[nH]1)C(c1ccncc1)C(C(=O)OC(C)C)=C(C)N2 (stereo not given)	4%	15	nt	3	3.5	0.8	nt	1.0
Cc1cc(C(=O)NCc2cccnc2)cs1	1%	-22	11	-1	2.3	0.2	-1.5	9.6
COC(=O)c1ccc(CN2C(=O)C(C)N(C(=O)c3c(F)cccc3F)c3ccccc32)cc1 (stereo not given)	-6%	9	2	-2	5.4	0.8	2.5	-2.0
O=C(NCCCN1CCCC1=O)c1cc(NS(=O)(=O)c2ccc(F)cc2)cc(NS(=O)(=O)c2ccc(F)cc2)c1	-3%	31	-4	-6	7.0	-0.3	nt	1.7
CCc1ccc(NC(=O)c2cc(-c3cccs3)on2)cc1	?	-8	0	-3	-5.2	-0.7	-38	6.6
Cn1cc(C(=O)N/N=C/c2cc(Br)cs2)c2ccccc21	-8%	43	3	2	6.6	0.3	nt	-1.6
CCCn1nc2cc(C(=O)NCc3ccccc3OC)ccc2c1OCC	7%	-1	-3	-12	-1.0	-2.3	1.3	-3.6
OCCC1CN(Cc2cccn2-c2cccnc2)CCN1Cc1ccccc1 (stereo not given)	8%	-21	2	0	9.8	0.7	2.4	2.4

Compounds shown so far with a tert-butyl group (two):
SMILES	Vif TR-FRET	Calb FLC	Beta apoptosis	T cruzi repl	RanGTP-Impb inh	A1 inh	AF4-AF9 inh	LANA-H2A inh
C/C(=N/O)c1cc(C(C)(C)C)c(O)c(C(C)(C)C)c1	-1%	19	-3	-3	-3.4	0.6	nt	-1.9
CC(C)C(NC(=O)C1CCC(C(C)(C)C)CC1)C(=O)NCCCN1CCCCC1 (stereo not given)	-2%	1	-6	13	7.4	-0.5	6.3	-3.0
